Source: PubChem BioAssay (several laboratories)
HNF4A DNA FP: change in binding of human HNF4 alpha to DNA; P41235; HNF4a-FITC DNA binding, fluorescence polarization, 1 h; activity change, % at 10 µM; actives 0.3% (n = 360,000); AID 1224865; in the data active means activity change above about 30%, passing the limit was not always enough;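 further: controls were the assay level and a saturating level of protein; the project sought stronger binding though the title names inhibitors; some compounds called inactive have numbers as strong as hits; positive values seem to mean higher polarization but the record does not say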
ALR H2O2 inh: human ALR oxidase inhibition via reduced H2O2; P55789; purified ALR, DTT oxidation, H2O2 HRP-luminol luminescence; inhibition, % (concentration not given with the values); actives 3.8% (n = 290,000); AID 485317;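 active means mean and each replicate at 75% or more; inconclusive means only one of the two met; inactive means neither met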;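 further: stock transfer was 7.5 nL into about 7.5 µL; 0% = neutral wells and 100% = wells with inactivated enzyme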
Target sequence (P55789 whole entry, looked up): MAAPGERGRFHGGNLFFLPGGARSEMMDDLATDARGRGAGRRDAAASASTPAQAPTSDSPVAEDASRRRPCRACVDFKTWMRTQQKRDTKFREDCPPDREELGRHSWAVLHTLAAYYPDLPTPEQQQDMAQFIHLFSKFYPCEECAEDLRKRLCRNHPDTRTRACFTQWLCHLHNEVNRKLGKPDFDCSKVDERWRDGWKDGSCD
Beta2AR agonist: agonists of human beta-2 adrenergic receptor inducing internalization; Am2.2-beta2AR cells, FAP receptor internalization, flow cytometry; reference of the scale not given here; response, % (concentration not given with the values); actives 0.43% (n = 340,000); AID 504454;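 active means response above a set limit, near 3 SD of response in nonfluorescent compounds, cut at about 42% in these data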;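 further: stock transfer was 100 nL into about 11 µL; a reference agonist was the positive control; negative values mostly stem from fluorescent compounds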
Target sequence (P07550 whole entry, looked up): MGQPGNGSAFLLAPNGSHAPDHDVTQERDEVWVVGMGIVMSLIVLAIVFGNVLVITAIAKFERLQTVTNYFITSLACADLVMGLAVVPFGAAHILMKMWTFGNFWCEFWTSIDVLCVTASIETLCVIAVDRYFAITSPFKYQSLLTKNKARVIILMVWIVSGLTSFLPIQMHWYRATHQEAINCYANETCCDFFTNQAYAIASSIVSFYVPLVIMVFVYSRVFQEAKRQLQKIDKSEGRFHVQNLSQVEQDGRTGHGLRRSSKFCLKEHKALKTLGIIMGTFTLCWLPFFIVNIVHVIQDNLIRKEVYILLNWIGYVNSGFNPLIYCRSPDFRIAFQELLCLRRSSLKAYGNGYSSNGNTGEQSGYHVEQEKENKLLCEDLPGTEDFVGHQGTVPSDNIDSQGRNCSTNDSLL
LANA-H2B inh: blocks KSHV LANA binding to histone H2A/H2B; Q9QR71; cell-free LANA-H2A/H2B peptide, fluorescence polarization; inhibition, % (concentration not given with the values); actives 0.6% (n = 320,000); AID 2629; in the data active means inhibition mostly above about 10%, no sharp cut-off; inactive means mostly below about 6.7%;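 further: stock transfer was 7.5 nL into about 10 µL; 0% = median of vehicle wells and 100% = median of positive control wells; one replicate is shown; the record names a cut of 25% in any replicate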
RanGTP-Impb inh: inhibitors of RanGTP-importin-beta interaction, primary screen, biochemical, FRET, CFP-Ran, YFP-importin-beta, homogeneous | actives 1.1% (n = 300,000) | cell-free CFP-Ran/YFP-importin-beta FRET ratio | inhibition, % (test concentration not listed) | AID 2216;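 active means most replicates above 15%; inconclusive means exactly half above 15%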;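 further: 0% = DMSO wells and 100% = Ran loaded with GDP instead of GTP; wells of about 40 µL received 100 nL stock; the first replicate is given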
Calb FLC: affects C. albicans growth with fluconazole; C. albicans CaCi-2 (fluconazole-resistant clinical isolate) + fluconazole, Alamar Blue growth, 48 h; growth inhibition, % (no concentration beside the values); actives 0.57% (n = 300,000);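 active means most replicates above 75%; inconclusive means exactly half above 75%; inactive means most below 75%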;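 further: all wells also contain fluconazole at 8 µg/ml as a sub-toxic cotreatment; 0% = median of DMSO wells and 100% = median of geldanamycin control wells; wells of about 8 µL received 7.5 nL stock; the first replicate is given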
Vif A3G: inhibitors of Vif binding to APOBEC3G peptide, primary screen, biochemical, TR-FRET, GST-Vif 1-94, biotin-A3G peptide, dose response retest (AID 1117319) | TR-FRET GST-Vif / biotin-A3G peptide binding; higher % means a stronger effect; test concentration not given here; strong numbers were not always called active | inhibition, %, or IC50 in µM where a hit was titrated | actives 0.57% (n = 260,000);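 active means above the screen mean plus three standard deviations and confirmed in dose response; inconclusive means results disagree or hit not tested in dose response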;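 further: Vif residues 1-94 fused to GST binding biotinylated APOBEC3G peptide 110-148; 0% = full assay without inhibitor and 100% = GST in place of GST-Vif; retest series ran down from 100 µM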
* marks the source's active call; other numbers are inactive results; ? = inconclusive; nt = no result given.

Fields – ALR H2O2 inh, Beta2AR agonist, Calb FLC, LANA-H2B inh, HNF4A DNA FP, RanGTP-Impb inh, Vif A3G
C#CCNC(=O)C1=C[C@@H](c2ccc3c(c2)OCO3)[C@H](CCCO)[C@@H](OCC)O1
 : 14, 1, -5, 1.5, -5.5, -3.8, 7%
CCOc1ccc(N(CC(=O)NCCc2ccccc2)C(=O)c2csnn2)cc1
 : -6, -10, -12, 1.2, -1.7, -3.2, 10%
Cc1ccc(NS(=O)(=O)c2c(C)[nH]c(C)c2C(=O)N2CCCC2)cc1Cl
 : 0, 8, -4, -1.3, -1.9, -1.0, 13%
O=C(NCc1ccccc1)C(c1cccs1)N(Cc1cccs1)C(=O)c1cnccn1 (configuration not stated)
 : -17, 5, -1, -1.9, -0.5, -1.9, 8%
Nc1ccc2c3c(cccc13)CC2
 : -16, 19, 4, -21, 7.3, -44, 11%
CCOC(=O)c1c(S(=O)(=O)NCC(=O)Nc2ccc(OC)cc2)c(C)n(C)c1C
 : -8, -4, -2, 6.2, 3.9, 1.7, nt
O=C(Nc1ccc2c(c1)OCCO2)c1cc2sccc2n1Cc1ccccc1
 : -15, 38, 3, 3.0, -1.6, 1.9, -5%
CCC1=[N+]([O-])C(C)(/C(C)=N\O)N(O)C1(C)C (configuration not stated)
 : 3, 3, -3, 1.9, -2.8, 2.6, 2%
CC1Nc2ncnc(N3CCN(c4ccccc4)CC3)c2N(Cc2ccccc2)C1=O (configuration not stated)
 : 24, -8, 1, 6.2, 5.2, 2.8, nt
CC(C)c1cccc(C(C)C)c1NC(=O)COc1nncc2ccccc12
 : -19, -13, 0, 4.7, 0.4, 0.7, -7%
Cc1ccccc1NS(=O)(=O)c1csc(C(N)=O)c1
 : 11, -1, -2, -2.6, 1.4, -1.1, -3%
CC[C@@]1(C(=O)OC)N[C@H](CN(C)C(=O)COC)[C@@H]2C(=O)N(Cc3ccccc3)C(=O)[C@@H]21
 : nt, -4, nt, nt, -0.6, nt, 2%
CN1CCc2c(n(CC(O)CN(CCO)CCO)c3ccccc23)C1=O (configuration not stated)
 : -4, -9, -3, -18, 1.6, 2.3, nt
C/C(=N\n1c(C)cc(C)c(C#N)c1=O)c1cccs1
 : -17, 6, 23, -0.6, 4.7, 1.5, 15%
Cc1ccc(N2CC(C(=O)Nc3ccc(S(=O)(=O)NCC4CCCO4)cc3)CC2=O)cc1 (configuration not stated)
 : 1, -4, -4, -2.4, 1.3, -1.8, 0%
Cn1cc(CN(Cc2ccccc2)C[C@@H]2CCC(=O)N2)c(-c2ccccc2F)n1
 : 1, 5, 2, -0.6, 1.8, 5.1, 5%
O=C(O)c1ccccc1NS(=O)(=O)c1cccc(N=Nc2c(O)[nH]c(=S)[nH]c2=O)c1
 : nt, -9, nt, nt, 0.2, nt, 0%
CCOc1ccc(-n2c(=S)sc3c(=O)[nH]c(SCC(=O)N4CCC(C)CC4)nc32)cc1
 : 19, 1, 6, 2.9, 1.4, -11, 4%
O=C1C=C(Nc2ccc(O)cc2)CC(c2ccco2)C1 (configuration not stated)
 : 99*, -1, 4, 3.8, 1.0, 8.8, nt
CCn1c(C(C)NC(=O)c2cccs2)n[nH]c1=S (configuration not stated)
 : 44, 9, -19, 2.7, 2.0, -3.1, 19%
CC(C)(C)C1COc2ccccc2N1C(=O)c1ccccc1Cl (configuration not stated)
 : -11, 1, 0, 1.8, -0.7, -4.5, 6%
O=C1/C(=C/c2cccc([N+](=O)[O-])c2)Oc2cc(O)ccc21
 : 5, 17, 3, 6.6, 2.5, ?, -5%
O=C(Nc1ccc(F)cc1)c1ccc(S(=O)(=O)NCc2cccnc2)cc1
 : -6, -8, 7, 1.9, 0.6, 4.5, 6%
CCOC(=O)N1CCN(c2cc(=O)n(-c3ccc(OCC)cc3)c(=O)[nH]2)CC1
 : 3, 5, -8, -0.1, 0.3, 2.3, 4%
O=C(NCc1ccccn1)Nc1cc(Cl)ccc1Cl
 : -1, -3, 11, 0.8, -0.4, 2.4, -5%
O=C(Cn1cc(C(F)(F)F)cc(Cl)c1=O)NC1CCS(=O)(=O)C1 (configuration not stated)
 : 0, -11, nt, 2.1, -1.1, nt, 2%
COc1ccc(-n2c(SCC(=O)Nc3ccccc3)nc(O)cc2=O)cc1
 : 88*, -3, -5, 3.8, 1.9, 3.0, -7%
COCCCn1c(C(=O)Nc2ccc3c(c2)OCO3)cc2c(=O)n3ccccc3nc21
 : 0, 8, -7, 1.1, -1.1, -0.6, nt
Cc1ccc(NC(=O)CN(C)S(=O)(=O)c2cccc3cccnc23)cc1
 : 95*, -4, 3, 1.7, 6.1, 6.2, 4%
COc1ccc(Cn2cnc3c([N+](=O)[O-])c(C)c(C)cc32)cc1
 : -9, -2, 39, 0.8, 1.6, -3.6, -4%
O=C(COC(=O)c1cc[n+]([O-])cc1)Nc1cccc(Br)c1
 : nt, -2, nt, nt, 3.2, nt, 4%
C[C@@H](NC(=O)c1nc[nH]c1C(=O)NCCCCCNC(=O)OC(C)(C)C)c1ccccc1
 : -8, 4, nt, -3.4, 0.0, nt, nt
O=C(N/N=C/c1ccc([N+](=O)[O-])cc1)c1cc2ccccc2o1
 : nt, 6, -15, 1.5, -2.9, -0.2, -4%
COc1ccc(OC)c(NC(=O)COC(=O)c2ccc(-n3cnnn3)cc2)c1
 : -1, 5, -11, -0.5, -0.1, 3.2, 14%
Cc1ccc(S(=O)(=O)CCC(=O)Nc2ccccc2C)cc1
 : -2, 7, 1, 0.0, 1.7, -3.6, -8%
O=C(Nc1ccc(S(=O)(=O)N2CCCCC2)cc1)C1CC(=O)N(c2ccc(Cl)cc2)C1 (configuration not stated)
 : -2, -1, -2, 0.2, 5.9, 2.8, -7%
CN1C(=S)SC(/[N+]([O-])=C/c2c(F)cccc2Cl)C1(C)C (configuration not stated)
 : -13, 3, -1, -6.8, 1.6, -1.0, 0%
COc1ccc(-c2csc(Cc3nnc(N4CCOCC4)n3-c3ccccc3)n2)cc1OC
 : -5, -4, 12, 7.2, 1.7, 0.1, 10%
Cc1nc(N(C)C)c2sc(=S)n(-c3ccccc3)c2n1
 : -6, -1, 6, -1.4, -1.6, -0.6, -6%
CC1(C(=O)N/N=C/c2ccc3c(c2)OCO3)CC1(Br)Br (configuration not stated)
 : -2, 0, 0, -2.4, 0.0, -2.8, nt
COc1cc(Cl)cc(C2NC(=S)NC(c3ccccc3)=C2C(C)=O)c1OCC(=O)O (configuration not stated)
 : 2, 2, 5, -16, 0.1, 3.5, -11%
COc1ccc(C(=O)NCC(=O)NCC(=O)OCC(=O)c2ccc(Br)cc2)cc1
 : -16, -7, -17, -2.4, 0.1, 2.4, 1%
Cc1cccc(NC(=O)c2nc[nH]c2C(=O)N[C@H](C)c2ccccc2)c1
 : -3, 4, nt, -7.0, 3.4, nt, nt
O=S(=O)(c1ccc(NC(=S)Nc2ccc3c(c2)OCO3)cc1)N1CCOCC1
 : -56, 16, 0, 0.0, -1.3, 0.3, ?
O=C(O)c1ccc(OC2CSC2)cc1
 : -5, 0, -1, -4.0, -2.6, -0.5, 3%
Cc1cc(-c2nnc(SCC(=O)Nc3ccc(Cl)cn3)n2N)n[nH]1
 : 0, -9, 20, -0.6, 3.2, ?, nt
CC(=O)NNC(=O)c1sc(=S)n2c1[nH]c(=O)c1sccc12
 : nt, 4, -2, 2.2, 2.1, ?, 6%
Cc1ccc(NC(=O)CSCC(=O)N(C)Cc2ccc(Cl)c(Cl)c2)cc1
 : nt, 3, nt, -1.0, 2.7, nt, -7%
CCCCC#Cc1ccc2c(c1)COc1c3ccccc3nn1-2
 : 0, 4, -14, -0.2, 3.2, 1.7, 7%
CCOC(=O)c1c(C)nn(Cc2cccc(Cl)c2)c1N
 : 4, 6, -10, -2.7, -0.9, 1.7, 37%
Cc1ccc(-n2c(C)n[nH]c2=S)cc1
 : 95*, 17, -2, -3.6, 4.3, -1.8, 2%
Cc1ccc(C)c(S(=O)(=O)N2CCCC2CNC(=O)C(=O)NCc2ccco2)c1 (configuration not stated)
 : 3, -13, 2, 3.9, 0.7, 7.3, 4%
CCN(C[C@H]1N[C@@](C)(C(=O)OC)[C@H]2C(=O)N(C)C(=O)[C@@H]12)S(=O)(=O)c1ccc(OC(F)(F)F)cc1
 : nt, -7, nt, nt, -5.2, nt, 12%
CCO[C@@H]1OC(C(N)=O)=C[C@H](c2cn(C(C)=O)c3ccccc23)[C@H]1CCCO
 : -2, -8, -7, -3.4, 0.9, ?, nt
COc1cc(O)oc1C=Nc1ccccc1
 : -16, 4, ?, -3.6, -4.3, 1.2, >100µM*
c1ccc(-c2csc3ncnc(N4CCOCC4)c23)cc1
 : -13, -3, 6, 0.8, 0.6, 5.2, -2%
COC(=O)Cc1c(C)c2c(O)cc(C)cc2oc1=O
 : 33, 7, -20, 8.1, 4.0, -1.1, -14%
O=C(O)CSc1nc2c(c(=O)[nH]1)CCCC2
 : -7, 2, ?, -7.1, 0.4, 2.5, 32%
CCC1CCCCN1Cc1ccc(N)cc1 (configuration not stated)
 : -14, -4, -11, -0.2, 1.2, nt, 9%
COc1ccccc1OCCNC(=O)Nc1ccc(Br)cc1
 : -3, 0, -5, 0.3, 1.0, 0.8, 0%

Next section.
Fields – ALR H2O2 inh, Beta2AR agonist, Calb FLC, LANA-H2B inh, HNF4A DNA FP, RanGTP-Impb inh, Vif A3G
O=C(N/N=C/c1ccoc1)c1ccc([N+](=O)[O-])cc1
 : -9, -7, -4, 4.8, -1.9, nt, 9%
CC1(C)CC(=O)C2=C(C1)NC(=O)CC2c1ccccc1F (configuration not stated)
 : -5, -6, -4, 2.6, 0.3, -2.7, 1%
O=C(O)CC/C(=N/Nc1ncc(C(F)(F)F)cc1Cl)C(=O)O
 : nt, -3, -6, -1.7, 1.0, 0.4, nt
CCCCSc1nc(C)[nH]c1[N+](=O)[O-]
 : -5, -6, -16, -6.6, -2.3, -0.6, 15%
O=C(Nc1nnc(S(=O)(=O)Nc2ccccc2)s1)c1ccccc1Cl
 : 2, -2, -25, 5.7, 0.0, ?, nt
O=C(CSc1ncccn1)Nc1ccc(S(=O)(=O)N2CCCCC2)cc1
 : -11, -1, 4, 1.6, 1.7, 3.0, 1%
CCn1ccnc1CN(C)C(=O)c1cc(COc2ccc(OC)c3ccccc23)on1
 : -16, 7, 8, -5.6, -1.9, -1.2, nt
O=C(N/N=C/c1cccs1)c1n[nH]c2c1CCC2
 : nt, -15, -2, 4.2, -1.4, 1.0, 16%
CC(NC(=O)c1ccccc1)C(=O)NNC(=O)c1ccccc1Cl (configuration not stated)
 : -3, -3, nt, -0.5, 0.6, nt, -7%
Cc1ccc(C(=O)C2CCN(CC(=O)NC3CCCCC3)CC2)cc1
 : -9, 1, -14, -9.0, -4.7, ?, 7%
